KAT2A inh – inhibitors of human GCN5L2 histone acetyltransferase; Q92830; GCN5L2 HAT assay, ThioGlo1 CoA-SH fluorescence; Potency, µM (titrated, usually from 58.9 µM), for inactives: at the top dose activity change, negative = inhibition, hits mostly inhibitors; 0.21% of 390,000 active; active = well fitted inhibition curve with a large enough effect
Target sequence (Q92830 whole entry, looked up): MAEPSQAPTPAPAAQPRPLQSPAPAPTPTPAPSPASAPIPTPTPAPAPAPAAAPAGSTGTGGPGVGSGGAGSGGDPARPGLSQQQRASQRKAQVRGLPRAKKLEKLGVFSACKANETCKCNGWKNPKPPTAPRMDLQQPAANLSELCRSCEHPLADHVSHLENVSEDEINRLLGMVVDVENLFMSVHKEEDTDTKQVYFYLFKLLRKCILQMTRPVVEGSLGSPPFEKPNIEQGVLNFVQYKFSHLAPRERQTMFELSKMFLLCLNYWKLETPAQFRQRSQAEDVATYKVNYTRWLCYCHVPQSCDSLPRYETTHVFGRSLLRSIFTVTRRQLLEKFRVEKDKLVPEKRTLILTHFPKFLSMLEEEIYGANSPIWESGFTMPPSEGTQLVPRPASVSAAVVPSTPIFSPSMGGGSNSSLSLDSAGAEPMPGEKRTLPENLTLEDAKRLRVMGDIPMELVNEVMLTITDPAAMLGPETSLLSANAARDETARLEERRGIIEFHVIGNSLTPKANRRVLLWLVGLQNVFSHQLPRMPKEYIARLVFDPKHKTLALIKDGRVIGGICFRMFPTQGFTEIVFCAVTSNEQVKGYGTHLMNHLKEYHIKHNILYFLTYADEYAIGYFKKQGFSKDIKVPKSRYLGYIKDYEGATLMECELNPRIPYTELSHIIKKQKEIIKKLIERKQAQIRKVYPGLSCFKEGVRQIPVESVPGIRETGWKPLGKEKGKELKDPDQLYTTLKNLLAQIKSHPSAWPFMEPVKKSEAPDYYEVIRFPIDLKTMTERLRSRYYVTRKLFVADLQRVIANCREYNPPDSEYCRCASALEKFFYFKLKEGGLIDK
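GCN5L2 (20 nM) in 50mM HEPES pH 7.5, 0.1mM EDTA, 0.01% Tween-20 preincubated 15 min with compounds at room temperature. Reaction started with H3(1-25) 75uM, acetyl-CoA 70uM, ThioGlo1 50uM; CoA-thiol fluorescence (Ex340/Em540) read at 0 and 20 min.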
* = called active by the depositor; & = joins results of further samples; [ ] = another dose, or the depositor's remark. % is set by controls: 0 for no effect and ±100 for the full control effect; potency is the fitted concentration of half-maximal effect. Not all compounds are listed, and most or all hits are left out here.

KAT2A inh	canonical_smiles
-2%	Cc1sc2nc(CN3CCOCC3)nc(N3CCC(C(N)=O)CC3)c2c1C
-24%	CCn1c(Cc2ccccc2)nnc1SCC(=O)N1CCCC1=O
0%	CCOc1ccc(NC(=O)CN(C)S(=O)(=O)c2cccc3cccnc23)cc1
0%	O=C(N=C1SC2CS(=O)(=O)CC2N1c1ccc(Cl)cc1Cl)C1CCCO1 (configuration not stated)
-7%	CC(=O)N1CCOc2ccc(S(=O)(=O)NCC3CCC(C(=O)NCCC(C)C)CC3)cc21 (configuration not stated)
-10%	CO[C@@]1(NC(=O)CSCC#N)C(=O)N2C(C(=O)O)=C(CSc3nnnn3C)CSC21 (some centres not stated)
2%	COc1ccccc1-c1noc(CSc2nc(N)cc(=O)[nH]2)n1
-5%	O=C(Nc1ccc2c(c1)OCO2)C1CCN(C(=O)c2ccc([N+](=O)[O-])cc2)CC1
2%	Cc1scc(C(=O)NNC(=S)NCc2ccccc2)c1C
4%	COc1ccc(OCC(=O)NNC(=O)c2cccc(S(=O)(=O)N(C)C)c2)cc1
-6%	COc1ccc([N+](=O)[O-])cc1NC(=O)C(C)Sc1ccc(C)cc1 (configuration not stated)
-13%	C(=C\c1nnc(-c2cccs2)o1)/c1ccccc1
-5%	O=C(Nc1ccc(F)cc1)C1CCN(C(=O)NCc2ccccc2)CC1
-12%	O=C(CCC(=O)N1CCN(S(=O)(=O)c2ccc(Cl)cc2)CC1)Nc1ccc2ccccc2c1
-10%	CCOCCCNCC(=O)Nc1ccc(S(=O)(=O)NC(C)CC)cc1 (configuration not stated)
-5%	CCN(CC)CCCNC(=O)CCCn1ncn2c(cc3occc32)c1=O
-6%	CCCCN(C(=S)Nc1cccc(C)c1C)c1c(N)n(CCC)c(=O)[nH]c1=O
-8%	COc1cccc2c3c(c(C)nc12)CC(C)O3 (configuration not stated)
1%	CC1(CN2CCC(n3c(=O)[nH]c4ccccc43)CC2)OCc2ccccc2-n2cccc21 (configuration not stated)
-3%	O=C(NC1CCN(S(=O)(=O)c2cccc(Cl)c2)CC1)C1CCCCC1

Five of the compounds above, with bars between the fields:
SMILES | KAT2A inh
CCOCCCNCC(=O)Nc1ccc(S(=O)(=O)NC(C)CC)cc1 (configuration not stated) | -10%
CCN(CC)CCCNC(=O)CCCn1ncn2c(cc3occc32)c1=O | -5%
CCCCN(C(=S)Nc1cccc(C)c1C)c1c(N)n(CCC)c(=O)[nH]c1=O | -6%
COc1cccc2c3c(c(C)nc12)CC(C)O3 (configuration not stated) | -8%
CC1(CN2CCC(n3c(=O)[nH]c4ccccc43)CC2)OCc2ccccc2-n2cccc21 (configuration not stated) | 1%

(further entries)
KAT2A inh	canonical_smiles
4%	N=c1n(CCO)c2ccccc2n1Cc1ccccc1Cl
-2%	COc1ccc(N2CCN(C(=O)c3ccccc3N(C)S(=O)(=O)c3ccc(C)cc3)CC2)cc1
0%	Cc1cccc(N(C(=O)CNC(=O)c2ccco2)C(C(=O)NC2CCCC2)c2cccnc2)c1 (configuration not stated)
-9%	Cc1ccc(C(=O)N2CCN(c3ccc(NC(=O)c4cccs4)cc3)CC2)cc1
-8%	COc1cc(NC2c3ccccc3C(=O)N2Cc2ccc3c(c2)OCO3)cc(OC)c1 (configuration not stated)
-9%	O=C(Oc1ccc2[nH]cc(CCN3C(=O)c4ccccc4C3=O)c2c1)c1ccco1
-17%	O=C(NCCCN1CCCC1)c1ccc(CS(=O)(=O)c2ccc(Cl)cc2)o1
-16%	CC1CCN(c2nc(Cl)nc(Nc3ccc([N+](=O)[O-])cc3)n2)CC1
-4%	CCCCN(Cc1cc2ccccc2[nH]c1=O)S(C)(=O)=O
-2%	O=C(Nc1ccon1)c1cc2c(s1)CCCC2
20%	Cc1cccc(NC(=O)Nc2ccc(C)cc2Br)c1
-2%	COc1cscc1C(=O)O
-8%	CCN(CCCNC(=O)c1cc2cc3cc(OC)ccc3nc2s1)c1ccccc1
-5%	Cc1cc(C)cc(NC(=S)N2CCN(C(=O)c3ccco3)CC2)c1
2%	Cc1c(NC(=O)c2cccc(NC(=O)Cc3ccccc3F)c2)c(=O)n(-c2ccccc2)n1C
-1%	CCC(C)(C)NC(=S)Nc1ccc(-c2nc3ccc(C)cc3s2)cc1
9%	Cc1ncsc1C(=O)N1CCCC(CNS(=O)(=O)c2cccs2)C1 (configuration not stated)
2%	CC1=CC(=O)C2=C(C)CC[C@@H]3[C@H](OC(=O)[C@H]3C)[C@@H]12
-4%	CC(C)C(c1nnnn1Cc1ccco1)N1CCN(c2cccc(Cl)c2)CC1 (configuration not stated)
-7%	COc1cccc(NC(=O)c2nc3nc(C)cc(C(F)F)n3n2)c1
-1%[21.4 µM]	CC[N+](CC)(CC(=O)Nc1c(C)cccc1C)Cc1ccccc1
-5%	CCCc1c(CC)c(=N)c2ccccc2n1C
-6%	O=C(N=C1SC2CS(=O)(=O)CC2N1c1ccc(Cl)cc1Cl)C1CC1 (configuration not stated)
-4%	Cc1cccc(Cn2c(CN3CCC(C(=O)NCc4cccnc4)CC3)cc3ccccc32)c1
3%	O=C(Nc1ccc(Cl)c(Cl)c1)N1CC=CCC1
-1%	CC(C)Sc1nc(N2CCCC2)c2c(c1C#N)CC(C)(C)OC2
-4%	CC1CCN(S(=O)(=O)c2ccc3c(ccn3CC(=O)O)c2)CC1
-17%	CO[C@H]1C[C@@H]2CC[C@@H](C)[C@@](O)(O2)C(=O)C(=O)N2CCCC[C@H]2C(=O)O[C@H](C(C)C[C@H]2CC[C@@H](O)[C@H](OC)C2)CC(=O)[C@H](C)/C=C(\C)[C@@H](O)[C@@H](OC)C(=O)[C@H](C)C[C@H](C)/C=C/C=C/C=C/1C (some centres not stated)
-2%	CC1=CS(=O)(=O)CC1Sc1ncn[nH]1 (configuration not stated)
-7%	N/C(=N\OC(=O)CCC1CCCC1)c1cccc([N+](=O)[O-])c1
-12%	COc1ccc(S(=O)(=O)NC(C)C(=O)Nc2cccc(C(C)=O)c2)cc1 (configuration not stated)
-5%	Cc1ccccc1NC(=S)NCCc1ccccc1
-2%	COC(=O)CSc1[nH]c2ccc(Br)cc2c1[N+](=O)[O-]
-5%	CCN(CC(=O)NC(=O)NC1CCCCC1)Cc1nc2ccccc2c(=O)[nH]1
-5%	COc1ccc(NS(=O)(=O)c2ccc(C)c(C(=O)N(C)Cc3ccc(C)cc3)c2)cc1
-4%	NS(=O)(=O)c1ccc(CCNC(=O)/C=C/c2ccccc2[N+](=O)[O-])cc1
-1%	O=C(Nc1ccccc1N1CCOCC1)C1CCN(S(=O)(=O)c2ccc(Cl)cc2)CC1
-4%	O=C(/C=C/c1ccco1)NC1CCCC1
-2%	CCn1nc(C(=O)OCC(=O)N(CCC#N)c2ccccc2)c2ccccc2c1=O
-17%	CCOc1ccc(CNC(=O)C2CCCN(S(C)(=O)=O)C2)cc1OC (configuration not stated)
0%	COc1ccc(NC(=O)C(NC(=O)C2CCC(C)CC2)C(C)C)cc1 (configuration not stated)
-6%	CNc1cc(OC)c(C(=O)N[C@@H]2CCN(Cc3ccccc3)[C@H]2C)cc1Cl
-9%	Cc1cccc(NC(=O)CN2C(=O)CSc3ccc(S(=O)(=O)N4CCCC4)cc32)c1C
-9%	Cc1ccc(C(=O)NCC(=O)OCC(=O)c2ccccc2)s1
-1%	COc1cccc(NC(=O)CN(c2ccc(C)cc2)S(=O)(=O)c2c(C)nn(C)c2C)c1
-2%	CCOc1ccc(NC(=O)C2CC(=O)N(c3cc(C)cc(C)c3)C2)cc1 (configuration not stated)
-3%	COC(=O)c1c(NC(=S)NC(=O)c2ccco2)sc2c1CCCC2
-7%	Cc1ccc(C)c(CN2C(=O)c3ccccc3Sc3ccc(C(=O)NCc4ccco4)cc32)c1
-1%	COc1ccccc1NC(=O)COC(=O)c1ccccc1OCC(=O)Nc1ccc(SC(F)F)cc1
1%	CNS(=O)(=O)c1ccc(NC(=O)c2csc(C)c2)cc1
-3%	COc1cc2[nH]c3c(=O)n(CCN4CCOCC4)cnc3c2cc1OC
-2%	c1ccc(Nc2nn[nH]n2)cc1
0%	C/C(=N\O)C(=O)NCCCn1ccnc1
-26%	O=S(=O)(c1ccc(C(F)(F)F)cc1)N1CCCN(c2ccc(C(F)(F)F)cn2)CC1
-2%	CCC1(N(C(C)=O)c2ccc(OC)cc2)C(=O)c2ccccc2C1=O
-11%	c1ncc(-c2ccc3c(c2)OCO3)c(NCCc2cnc[nH]2)n1
-11%	COc1ccccc1CC(=O)Nc1ccc(S(=O)(=O)N(C)C2CCN(C)CC2)cc1
-4%	CCOC(=O)C1CCN(c2ccc(Cl)nn2)CC1
-21%	COc1ccc(-c2cc3cc(OC)c(OC)cc3c(C)n2)cc1C
1%	CC1C(=O)N2CCCc3cc(NC(=O)CC(C)(C)C)cc1c32 (configuration not stated)

The list continues:
KAT2A inh	canonical_smiles
-12%	COC(=O)CN1CCN(C(c2ccccc2)c2ccccc2)CC1
-1%	Cc1ccccc1CC(=O)N1CC(C)OC(C)C1 (configuration not stated)
1%&-6%	O=C(CSc1nccn1Cc1ccccc1)NC1CCCC1
3%	CCN(CCNC(=O)CC1Oc2ccccc2NC1=O)c1ccccc1 (configuration not stated)
0%	O=C(Nc1cccc(Cl)c1)c1nc[nH]c1C(=O)NCCCCNC(=O)c1[nH]cnc1C(=O)Nc1cccc(Cl)c1
-2%	CCOC(=O)c1ccc(CC2S/C(=C(\C#N)C(C)=O)NC2=O)cc1 (configuration not stated)
-6%	COc1cccc(-c2c(C#N)c(SC)nc3cc(C)nn23)c1
-3%	Cc1nn(Cc2c(F)c(F)c(F)c(F)c2F)c(C)c1NC(=O)c1c(-c2ccccc2)nn(-c2ccccc2)c1C
1%	COc1ccc(/C=N/NC(=S)Nc2ccccc2)cc1
-9%	COc1ccc(C(C(=O)NCc2ccccc2)N(C(=O)Cn2nnc3ccccc32)c2ccc(OC)cc2)cc1 (configuration not stated)
-3%	Cc1ccc(C(=O)NNC(=O)c2ccccc2-n2cccc2)cc1
32%[activator]	Cc1ccc(NC(=O)CC2C(=O)NCCN2C(=S)Nc2ccccc2)c(C)c1 (configuration not stated)
30%&-2%[activator]	CCCNC(=O)CCn1nc(-c2ccc(C)cc2)c2ccccc2c1=O
-2%	C/C=C\C(=O)Nc1cccc(C2=NOC3(C2)C[C@@H](C(N)=O)N(C(=O)COc2ccc(Cl)cc2)C3)c1 (some centres not stated)
-22%	CCN(CC)S(=O)(=O)c1ccc(NC(=O)c2c(C)oc3ncnc(N4CCOCC4)c23)cc1
0%	O=C(CSc1nncc2ccccc12)Nc1ccc(F)cc1
0%	CCOC(=O)c1oc2ccccc2c1NC(=O)CN1CCOCC1
-3%	O=C1c2cccnc2Oc2ccc(Cl)cc2N1Cc1ccc(F)cc1
0%	Cc1ccc(SCc2nc(-c3cccnc3)no2)cc1
-4%	Cc1ccc(C(=O)COC(=O)c2ccc3c(c2)C(=O)N(c2cccc4ncccc24)C3=O)cc1

Three of the entries above in order of the KAT2A inh value, largest number first.
KAT2A inh	canonical_smiles
-1%	Cc1ccccc1CC(=O)N1CC(C)OC(C)C1 (configuration not stated)
-2%	C/C=C\C(=O)Nc1cccc(C2=NOC3(C2)C[C@@H](C(N)=O)N(C(=O)COc2ccc(Cl)cc2)C3)c1 (some centres not stated)
-5%	O=C(Nc1ccc(F)cc1)C1CCN(C(=O)NCc2ccccc2)CC1

Following part
KAT2A inh	canonical_smiles
-5%	CCCCc1nc2cc(C(=O)NCc3nccn3CC)ccc2o1
0%	Cc1nn(CC(=O)N2CCN(S(=O)(=O)c3ccccc3)CC2)c(C)c1[N+](=O)[O-]
1%	Cc1ccccc1[C@]1(C)ON(c2ccccc2C(F)(F)F)C1=O
-16%	O=C(NC1CCCCC1)c1ccc(-c2cccc([N+](=O)[O-])c2)o1
0%	O=C(COc1ccccc1C(=O)NCc1ccccc1)Nc1ccccc1
-2%	CCC1=C(OC(=O)N(CC)CC)N2C(=O)OC(=NCC3CC3)[C@]2(C)[C@H]2C1=CC[C@H]1C(=O)N(C)C(=O)[C@H]12
-8%	CCOc1ccc(CCNC(=O)CCCc2nnc3n(CC)c(=O)c4sccc4n23)cc1
1%	COc1ccc(C(=O)c2c[nH]cc2-c2ccccc2)cc1
-2%	CCOc1ccc2nc(SCC(=O)Nc3cc(C)on3)c(C)cc2c1
1%	CCN1C(=O)N(CC)c2cccc3cccc1c23
-1%	CCCOc1ccc(OCC(=O)c2[nH]c(C)c(C(C)=O)c2C)cc1
-9%	CCN(CC)S(=O)(=O)c1ccc(C2=NOC3(C2)N(C)c2ccccc2C3(C)C)cc1 (configuration not stated)
5%	NC(=O)CSc1nnc2n(-c3ccccc3)c(=O)c3c4c(sc3n12)CCCCC4
-1%	Cc1nn(C(=O)CCC(=O)NCc2cccc(F)c2)c2ccccc12
0%	Cc1ccc(S(=O)(=O)NC(CC(C)C)C(=O)N2CC(C)OC(C)C2)cc1 (configuration not stated)
-7%	COc1cc(-c2nnc(CSc3nnc(Nc4ccc(Oc5ccccc5)cc4)s3)o2)cc(OC)c1OC
2%	c1ccc(Cn2ncc3c(N4CCOCC4)ncnc32)cc1
-2%	CC(=O)N1CCCC(C(=O)c2ccc(Oc3ccccc3)cc2)C1 (configuration not stated)
-9%	Cn1c(=NC(=O)c2cnccn2)sc2ccccc21
-6%	O=C(CN(c1ccccc1)S(=O)(=O)c1ccccc1[N+](=O)[O-])Nc1cccnc1
-3%	Cn1cnnc1SCC(=O)Nc1ncc(C(F)(F)F)cc1Cl

Given with each value named: part of the list above.
> COc1ccc(C(=O)c2c[nH]cc2-c2ccccc2)cc1
  KAT2A inh = 1%

> CCOc1ccc2nc(SCC(=O)Nc3cc(C)on3)c(C)cc2c1
  KAT2A inh = -2%

> CCN1C(=O)N(CC)c2cccc3cccc1c23
  KAT2A inh = 1%

> CCCOc1ccc(OCC(=O)c2[nH]c(C)c(C(C)=O)c2C)cc1
  KAT2A inh = -1%

Assay outcomes: PubChem, National Center for Advancing Translational Sciences (NCATS)
